Menin-MLL FL inh – displaces fluorescein MLL peptide from human menin; 290,000 tested, under 10 active; Fluorescence polarization, fluorescein-MLL peptide displacement from menin; FP activity change, % at 61.4 µM; inconclusive = falling polarisation curve, or a change in total fluorescence; inactive = total fluorescence flat and polarisation flat or rising; no compound was filed as active; the % refers to the polarisation; negative = inhibition;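 also: % of control where 0% means no effect; inhibitors lower the polarisation; unlabelled MLL peptide was the positive control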
gsp ag – activates gsp, the McCune-Albright syndrome mutation | 0.13% of 340,000 active | Potency, µM (doses to about 76.9 µM), without a hit: at the top dose activation (cAMP increase), most hits filed as activators | AID 624287 | gsp mutant cells, cAMP HTRF, 30 min; control for the full effect not named in the record; active = well fitted activation curve with a large enough effect; inconclusive = small, poorly fitted or top-dose-only effect, or another doubt; inactive = no such curve, though single readings can be large or run the other way; cell line not stated here;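 also: phosphodiesterase inhibitor Ro 20-1724 added with compounds to block cAMP breakdown; potency is read from the fitted curve at half-maximal effect; nearly all actives have a fitted effect of over 60% in size; about a fifth of the inactives were tested at one dose only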
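Cells stably selected in G418 were plated at 2000/well, grown 16-24 hr, then given compounds in DMSO with the PDE inhibitor […] (300 uM solution added) for 30 min at 37C; cAMP was read by HTRF.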
D2 agonist – human D2 receptor agonism in beta-arrestin assay | 0.084% of 360,000 active | DiscoveRx PathHunter D2 beta-arrestin, luminescence, 90 min; 100% = 57 uM dopamine signal | activation, % (concentration not given with the values) | P14416 | AID 624465; in the data active = activation above about 40%; inconclusive = about 15% to 40%; inactive = below about 15%; also: compound concentration not given in the record; the text of the record calls up to 30% inactive
Target sequence (P14416 whole entry, looked up): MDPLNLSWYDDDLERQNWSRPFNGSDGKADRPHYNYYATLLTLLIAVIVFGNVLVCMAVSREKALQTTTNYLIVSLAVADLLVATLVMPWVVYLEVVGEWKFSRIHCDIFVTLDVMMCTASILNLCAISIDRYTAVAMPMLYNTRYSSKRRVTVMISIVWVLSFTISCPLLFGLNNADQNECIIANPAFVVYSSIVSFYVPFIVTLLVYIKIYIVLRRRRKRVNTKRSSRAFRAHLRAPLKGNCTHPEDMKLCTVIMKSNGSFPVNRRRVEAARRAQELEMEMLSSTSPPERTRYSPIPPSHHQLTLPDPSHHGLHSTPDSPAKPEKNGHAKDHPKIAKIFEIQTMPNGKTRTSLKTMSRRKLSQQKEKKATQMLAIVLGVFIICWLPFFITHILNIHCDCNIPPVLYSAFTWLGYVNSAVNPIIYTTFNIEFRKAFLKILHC
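DiscoveRx PathHunter D2 beta-arrestin cells (2,100/well) attached overnight, then compound-stimulated 90 min at 37 C in HBSS/10 mM HEPES/0.1% Tween-20 buffer; beta-galactosidase complementation read by luminescence after 1 h at ambient temperature. Dopamine 57 uM final (EC100) as control.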
gsp antag – antagonists of gsp mutant (McCune-Albright syndrome) | 0.4% of 340,000 active | gsp-mutant cells, cAMP HTRF, 30 min; control for the full effect not named in the record | Potency, µM (titrated, usually from 76.9 µM), for inactives: top-dose activity change, negative = inhibition, actives largely listed as inhibitors | AID 624288; active = falling curve of any shape with a large fitted effect; inconclusive = falling curve, mostly with a smaller effect; inactive = flat or rising curve; cell line not stated here;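 also: intracellular cAMP measured with PDE inhibitor Ro 20-1724 present during compound exposure; potency is read from the fitted curve at half-maximal effect; % is scaled to controls: 0 for no effect and ±100 for the full control effect; nearly all actives have a fitted effect of over 65% in size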
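HTRF cAMP measurement after 30 min RT detection following 30 min, 37C compound treatment alongside […] (added as 300 uM solution) in G418-selected cells seeded at 2000/well and grown 16–24 h.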
ClpP mod – qHTS Assay for Activators of ClpP. purified B. subtilis ClpP, FRET peptide cleavage, 20 min. Potency, µM (highest dose often 57.5 µM), for inactives: at the highest dose activity change, negative = active. 1.9% of 340,000 active. AID 651965, 2013; active = well fitted falling curve with a large enough effect; inconclusive = small, poorly fitted or top-dose-only effect; inactive = no such curve, though single readings can be large or run the other way; also: potency is read from the fitted curve at half-maximal effect; the source files actives as falling curves though it sought activators and does not explain the sign; nearly all actives have a fitted effect of over 65% in size; many hits overshoot -100%
Target sequence (P80244 whole entry, looked up): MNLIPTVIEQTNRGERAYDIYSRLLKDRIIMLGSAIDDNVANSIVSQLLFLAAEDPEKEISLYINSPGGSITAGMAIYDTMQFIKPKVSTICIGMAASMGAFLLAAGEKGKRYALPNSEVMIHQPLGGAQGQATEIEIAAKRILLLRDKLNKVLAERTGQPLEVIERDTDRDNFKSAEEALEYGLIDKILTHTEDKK
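ClpP 10 microg/mL final, pH 8 Tris/KCl buffer with BSA, glycerol, Tween-20; compound pinned in; FRET-FV substrate; RT 20 min; Ex320/Em430; ΔFRET vs ADEP 5.8 microM, DMSO, no enzyme.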
PINK1 expr mod – changes PINK1 expression; PINK1 immunofluorescence, high-content cytometry, 24 h; Potency, µM (top dose mostly 76.6 µM), without a hit: at the highest dose activation (PINK1 increase), most hits filed as activators; 0.2% of 410,000 active; active = well fitted activation curve with a large enough effect; inconclusive = small, poorly fitted or top-dose-only effect; inactive = flat fitted curve, though single readings scatter; cell line not stated here;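 also: potency is read from the fitted curve at half-maximal effect; % of control where 0% means no effect; nearly all actives have a fitted effect of over 65% in size; a mitochondrial uncoupler was the plate control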
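Stable cell line treated 24 h with compounds at 5 concentrations (CCCP controls), then fixed and immunostained for PINK1 plus nuclear and cell stains; PINK1 immunofluorescence quantified by laser-scanning microplate cytometry.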
Sfp PPTase inh – blocks B. subtilis Sfp PPTase activity. Q9F4F7. Biochemical Sfp PPTase activity, qHTS. Potency, µM, for inactives: max response, negative = inhibition, hits mostly inhibitors. 3.5% of 310,000 active; active = well fitted inhibition curve with a large enough effect; inconclusive = small, poorly fitted or top-dose-only effect, or another doubt; inactive = no such curve, though single readings can be large or run the other way;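 also: the enzyme is Sfp with the accession as filed and its product quenches rhodamine fluorescence; potency is read from the fitted curve at half-maximal effect; 0% = enzyme reaction without inhibitor and -100% = no enzyme wells; top concentration of the series not given in the record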
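Reaction rates are the 30-min fluorescence difference (ex 525, em 598 nm) in wells containing 15 nM Sfp, 5 uM rhodamine-CoA and 12.5 uM BHQ-2-YbbR at pH 7.6 with 10 mM MgCl2.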
Active calls of the source: *; ? = inconclusive; . = no result given; & = joins results of further samples; [ ] = another dose, or the depositor's remark.

Screens in order – Menin-MLL FL inh	gsp ag	D2 agonist	gsp antag	ClpP mod	PINK1 expr mod	Sfp PPTase inh
COCCn1c(C(=O)N(C)C)cc2c1C[C@H]1CN(C(=O)c3ccccc3)[C@@](Cc3ccc(F)cc3)(C(=O)OC)[C@@H]21
 : -2.2	.	.	.	2.4%	1.8%	14%
Clc1ccc(NNc2ccnc3cc(Cl)ccc23)cc1
 : -0.7	-5%	3.9	0%	2.6%	-2.1%	6%
CSc1ccc(NC(=O)C2(C)CCN2C(=O)c2sccc2C)cc1 (stereo unspecified)
 : .	.	-3.2	.	-0.7%	0.5%	.
CCC(Sc1nc(=O)cc(N)n1-c1ccccc1)C(=O)Nc1cc(C)on1 (stereo unspecified)
 : 0.6	-2%	-2.0	2%	-2.1%	-1.0%[38.3 µM]	17%
Cc1cc(-n2c(=O)c(C#N)cc3c(=O)n4cccc(C)c4nc32)no1
 : 3.6	-4%	-0.9	18%	72%	-2.5%[38.3 µM]	15%
O=C(c1cccc(F)c1)N1CCN(C(=O)c2cc3ncc(Br)cn3n2)CC1
 : 2.5	-1%	-1.9	2%	-2.8%	5.4%[38.3 µM]	14%
Clc1ccc(-c2nnc(C3CC3)o2)cc1
 : 2.4	1%[15.4 µM]	-2.9	-4%	-0.6%	-0.5%	14%
CC(C)[C@H](NC(=O)c1ccccc1F)C(=O)NC1CCCCC1
 : .	28%	0.3	22%	1.3%	0.5%	.
COCC(=O)NC1CCN(CC(=O)Nc2ccc(OC)cc2[N+](=O)[O-])CC1
 : 3.4	?	2.7	0%	0.2%	-1.1%[38.3 µM]	-4%
CCNC(=O)c1ccc(OCC(=O)Nc2ccc(F)cc2)c(OC)c1
 : 1.2	-6%[15.4 µM]	-2.7	-1%	.	-1.9%	-3%
CCCNC(=O)c1nn2cc(Br)cnc2c1Cl
 : 1.3	-2%[15.4 µM]	0.6	-13%	0.0%	-0.8%	14%
CNC(=O)c1csc(-c2ccccc2)n1
 : 7.9	14%	-1.2	-7%	1.5%	-0.9%	15%
CCOC(=O)c1nnn(-c2ccc([N+](=O)[O-])cc2)c1C
 : 7.3	0%	-2.2	-1%	1.2%	0.6%	11%
Cc1cc(N)n(-c2ccc(C(=O)O)cc2)n1
 : 3.9	-11%[15.4 µM]	-0.1	.	.	0.2%	8%
CN1C(C(=O)NCc2ccco2)CC2Cn3c(nc4cc(Cl)c(Cl)cc43)C21 (stereo unspecified)
 : 3.2	-30%[inhibitor]	-1.8	-3%	-1.0%	1.1%	-1%
COc1ccc(S(=O)(=O)Nc2cc3c4c(c2)CC(=O)N4CCC3)cc1
 : .	35%[15.4 µM]	-2.4	-8%	.	2.0%	.
CCOc1ccc(NC(=O)c2ccc(NC(=O)c3cn4c5c(c(N6CCN(C)CC6)c(F)cc5c3=O)OCC4C)cc2)cc1 (stereo unspecified)
 : -0.8	-3%[15.4 µM]	3.0	14%	?	9.4%	-9%
COc1ccccc1N1CCN(CCCNC(=O)Cn2ncc3c([nH]c4ccccc43)c2=O)CC1
 : -7.9	1%	-4.5	12%	-26%&-27%	0.0%&0.0%	3%
CC[C@@H](C)[C@H](NC(=O)CCc1c(C)c2cc3c4c(oc3c(C)c2oc1=O)CCCC4)C(=O)O
 : -5.9	5%	10	-21%	3.9%	-1.1%	-5%
O=C(NC1CCCCC1)NC1CC2CCCC(C1)N2C1CCCC1 (stereo unspecified)
 : -6.4	-3%	-1.6	5%	1.3%	0.0%	3%
COC(=O)c1cn(C(=O)OC)c2ccccc12
 : 5.7	?	-1.1	8%	-4.6%	0.5%	-8%
Cc1nn(C(=O)c2cccnc2)c(C)c1C
 : 0.0	?	0.9	-1%	-0.8%	-3.5%	22%
Cc1nnc(NC(=O)Nc2cccc(Cl)c2)s1
 : 0.5	-25%	-1.6	-17%[15.4 µM]	-0.8%	9.6%	17%
CN(C)CCOc1ccccc1C(C)(C)C
 : 4.1	-14%	-2.5	14%	0.4%	-3.3%	79µM*
Cc1ccc2nsnc2c1NC(=O)c1ccccc1[N+](=O)[O-]
 : -0.8	-3%	-1.8	8%	-0.7%	1.7%	6%
CCc1nnc(NC(=O)CN2CCN(CC)CC2)s1
 : 0.9	11%	1.0	2%	-0.9%	2.6%	7%
CN(C)CCCNC(=O)N1c2ccccc2Sc2ccccc21
 : -9.4	-1%	-2.4	9%	.	-0.6%	10%
CCCCn1c(=O)c(C(=O)OCC)c(O)c2ccccc21
 : -0.3	?	-0.4	?	-20%	-0.7%	-18%
COc1cc2c(cc1OC)CN(CC(=O)Nc1ccc(C#N)cc1)CC2
 : 7.2	-2%	-2.3	-1%	-15%	-0.8%	-3%
CC(C)c1nn2c(=O)cc(CSc3ccccc3NC(=O)c3ccccc3F)nc2s1
 : 0.0	23%	1.2	-15%	-2.1%	-0.7%	15%
COc1ccc(NC(=O)CCn2ccnc2)c(OC)c1
 : -2.3	?	-5.2	5%	.	3.2%	6%
O=C(NNCC(O)COc1ccccc1)c1ccccc1 (stereo unspecified)
 : .	-23%	-2.0	5%	.	-2.2%	6%
Cc1ccc(Cn2c(=N)c(C(=O)NCC3CCCO3)cc3c(=O)n4ccccc4nc32)cc1 (stereo unspecified)
 : 7.3	22%[15.4 µM]	-0.6	-2%	.	0.2%	6%
Cc1ccc(Cl)cc1NC(=O)CN1C(=O)COc2ccc(S(=O)(=O)N3CCOCC3)cc21
 : 0.6	?	2.1	11%	-2.6%&-1.9%	-0.2%&3.8%	16%
CC(C)(C)c1ccc(/C=N/N2C(=O)CSC2=S)cc1
 : 3.1	?	-1.9	4%	.	-0.2%	-1%
Cc1ccc(C)n1NC(=O)c1ccccc1Cl
 : 5.2	?	-2.4	7%	-0.5%	3.0%	-6%
COc1ccc(Cc2c(C3CCCCC3)nc3c4ccccc4ccn23)c(C)c1
 : .	.	-4.2	.	4.7%	?	.
O=C(Cn1cnc2cc([N+](=O)[O-])ccc2c1=O)NCc1ccccc1
 : -0.4	-8%[15.4 µM]	3.5	2%	42%	1.0%	22%
O=C(CCNC(=O)c1ccc(Br)cc1)NCc1ccco1
 : .	9%[15.4 µM]	-0.2	-1%	.	0.6%	.
Cc1nc([N+](=O)[O-])cn1-c1ccc(N)cc1
 : 2.1	-1%	-1.6	4%	0.5%	0.4%	10%
Cc1c(O)ccc2c(CC(=O)N[C@@H](Cc3ccc(O)cc3)C(=O)O)cc(=O)oc12
 : 0.2	?	-2.4	1%	3.3%	0.4%	2%
O=C1/C(=C/c2ccc([N+](=O)[O-])cc2)C=C(c2ccccc2)N1c1ccccc1
 : 3.7	17%	-0.5	4%	-2.3%	-2.6%[38.3 µM]	-2%
COc1cc(NC(=O)c2cccs2)c(OC)cc1NC(=O)Cc1ccccc1
 : -3.3	16%[15.4 µM]	3.1	?	.	1.3%	8%
CC1(C)c2[nH]c3ccccc3c2C[C@H]2C(=O)N(CCCO)CC(=O)N21
 : 2.5	-12%	4.5	3%	-2.0%	0.4%	8%
O=C(Nc1cc(Cl)ccc1N1CCCC1)C1=COCCO1
 : .	27%	-2.0	-3%	2.7%	-0.7%	.
Cc1ccccc1Nc1nc(Cl)c(C=O)s1
 : 23	1%	2.3	2%	-1.8%	1.3%	11%
Cc1ccc(C(=O)COC(=O)CCCC(=O)NC2CCCCC2)cc1[N+](=O)[O-]
 : 1.8	-36%[inhibitor]	-9.3	-12%	-16%	-1.2%	32%
COc1ccc(-n2c(Cc3cc(=O)[nH]c(=O)[nH]3)nnc2SCc2ccccc2)cc1
 : 2.9	-4%	-5.6	-1%	-5.3%&-14%	3.3%	8%
COc1ccc(CNC(=O)CC(C)CC2=NS(=O)(=O)c3ccccc3N2)cc1 (stereo unspecified)
 : -6.0	-3%	-5.8	3%	0.2%&-3.1%	-0.4%&0.2%	17%
COc1ccc(CNC(=O)CSCc2cnn(-c3ccccc3)c2-n2cccc2)cc1
 : 1.8	28%	-1.0	-32%	2.1%	-0.2%	-4%
CC(C)(C)C(=O)O/N=C1/C(=O)N(c2ccccc2)c2ccccc21
 : 4.0	10%	-0.5	0%	-1.9%	-1.4%	23%
CCNc1ncc2nc(CCc3ccccc3)c(=O)n(Cc3ccc(F)cc3)c2n1
 : ?	.	.	.	.	45µM*	24%
Cc1c(C(=O)N2CCCC(C)(C(=O)NS(=O)(=O)C3CC3)C2)oc2ccccc12 (stereo unspecified)
 : .	.	3.7	.	-0.6%	0.3%	.
O=[N+]([O-])c1ccc(S(=O)(=O)NCC(c2cccnc2)N2CCOCC2)cc1 (stereo unspecified)
 : 1.0	?	5.0	8%	-0.8%	-1.1%	4%
CC(C)(C)NC(=O)C(c1ccc(F)cc1)N(Cc1ccco1)C(=O)CCC(=O)Nc1nccs1 (stereo unspecified)
 : 1.1	4%[15.4 µM]	-6.0	1%	-3.4%	1.4%	15%
CCCC(=O)Nc1cccc(S(=O)(=O)N(C)c2ccccc2)c1
 : 1.8	-41%[inhibitor]	-0.6	1%	1.3%	0.1%	20%
C/C(=C\C(=O)c1ccc(Br)cc1)NCc1ccc(C)cc1
 : -4.2	0%	-1.8	-15%	-2.3%	5.0%	-2%
C=CCn1c(N)c(C(=O)NCC2CCCO2)c2nc3ccccc3nc21 (stereo unspecified)
 : 9.0	-22%	1.0	12%	8.9µM*	.	?
O=C(O)C1CCCN1c1nc(-c2ccc(Cl)c(Cl)c2)cc(C(F)(F)F)n1 (stereo unspecified)
 : .	18%	-3.5	-22%	-9.4%	-2.3%	.
CC(=O)Nc1ccc(C(=O)CSc2nnc(-c3ccccc3F)n2CCc2ccccc2)cc1
 : .	?	-2.5	-27%	-3.0%	1.3%	.
CCN1C(=O)[C@@H]2[C@@H](c3ccc(-c4ccc(F)cc4)c(OC)c3)N3CCCC[C@@]3(C(=O)OC)[C@@H]2C1=O
 : .	-9%	-2.2	-19%	-6.5%	2.8%	.
COc1ccc(Cn2nnc(C(=O)Nc3ccc4c(c3)OCCO4)c2N)cc1Br
 : .	-41%[inhibitor]	6.4	5%	-4.5%	8.9%	-7%
CCCC(=O)n1nc(-c2ccco2)nc1N
 : 4.4	-19%	-2.5	7%	-1.8%	1.3%	4%

Source: PubChem BioAssay
